# Insulin prom inh = inhibitors of insulin promoter-driven GFP, primary screen, imaging, TRM-6 cells (human fetal islet line), eGFP reporter, cell count. reporter expression induced with tamoxifen. inhibition, % at 2 µM. actives 0.9% (n = 130,000). AID 1273, 2008;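 active = inhibition above the mean plus 3 SD, with well images judged a real hit on visual review, cut at about 60% in these data, passing the limit was not always enough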
# PKD1 kinase inh = inhibitors of human PKD1 kinase, biochemical, fluorescence polarization | actives 0.056% (n = 200,000) | inhibition, %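 (about 10 µM by stock and volumes)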 | PKD1 kinase fluorescence polarization assay | Serine/threonine-protein kinase D1 (Homo sapiens), Q15139;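 active = inhibition of 50% or more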;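 also: controls were vehicle for no effect and a reference inhibitor for full effect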
# GALR2 agonist = GALR2 receptor agonists, primary screen, cell-based | Galanin receptor type 2 (Homo sapiens), O43603 | GALR2-expressing cells, agonist activation read-out | activation, %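 (tested at 5 µM)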 | actives 0.48% (n = 140,000) | AID 803, 2007;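 active = above mean plus 3 SD of all compounds, about 5% in these data, not always enough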;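 also: 0% = vehicle buffer wells and 100% = reference agonist at full effect; tested in CHO reporter cells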
# HSV augment = enhancers of HSV replication in host cells, fold increase, host cell viability; HSV replication augmentation in cells; AID 1956, 2009; maximum fold increase; actives 0.005% (n = 220,000);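 active = peak rise of 1.5-fold or more in the series; tested in PC3 cells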;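 also: first round at 10 µM; read as green reporter fluorescence; hits show the peak of a series up to 25 µM; 1 = signal of infected wells without compound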
# RGS16-Gao HTS = modulators of RGS16 binding to Galphao, primary screen, biochemical, human proteins, multiplexed bead flow cytometry; Regulator of G-protein signaling 16 (Homo sapiens) + Guanine nucleotide-binding protein …; bead-based flow cytometry RGS16-Galphao binding, fluorescence; actives lie on both sides; binding response (% of control), % at 10 µM; actives 0.38% (n = 220,000); AID 1441, 2008;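 active = below 25% or above 175%, edge rows of some plates excepted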;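 also: Galphao activated by GDP with aluminum fluoride before binding; 100% = wells without compound and 0% = beads without RGS; some results beyond the cut were filed as inactive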
# Target sequence (O15492 whole entry, looked up): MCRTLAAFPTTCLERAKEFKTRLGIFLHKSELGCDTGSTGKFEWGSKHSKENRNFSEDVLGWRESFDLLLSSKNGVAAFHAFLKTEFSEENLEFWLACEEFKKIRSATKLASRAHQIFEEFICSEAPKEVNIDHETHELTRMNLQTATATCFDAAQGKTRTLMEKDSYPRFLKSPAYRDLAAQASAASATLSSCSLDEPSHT
# Target sequence (P09471 whole entry, looked up): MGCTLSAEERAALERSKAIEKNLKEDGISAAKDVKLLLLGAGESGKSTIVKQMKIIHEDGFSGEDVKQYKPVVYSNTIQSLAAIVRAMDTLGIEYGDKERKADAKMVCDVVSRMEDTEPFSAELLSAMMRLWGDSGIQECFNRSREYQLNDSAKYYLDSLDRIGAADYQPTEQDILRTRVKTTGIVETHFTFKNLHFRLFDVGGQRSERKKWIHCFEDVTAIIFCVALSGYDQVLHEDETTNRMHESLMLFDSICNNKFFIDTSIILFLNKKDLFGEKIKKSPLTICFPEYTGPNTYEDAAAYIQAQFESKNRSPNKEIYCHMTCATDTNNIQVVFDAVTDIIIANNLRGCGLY
# Insulin prom inh cell count = second read-out of Insulin prom inh, no call of its own (marks repeat the call); normalized cell count, %; measured here: cell count, toxicity; reference of the scale not given here;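 cells exposed to compound for 48 h; stained nuclei by imaging scaled within each plate; lower means fewer cells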
# HSV augment primary fold = further read-out of HSV augment, marked with its call; fold increase; compound at 10 µM; measured here: primary screen fold increase 10 uM; tested in PC3 cells;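 GFP signal in the first replicate; 1 = infected wells without compound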
# * hit, by the source's call; i = inactive; / = not tested or not shown. Random draw from the library. Share with any hit: about 1.2%.
SMILES,Insulin prom inh,Insulin prom inh cell count,PKD1 kinase inh,GALR2 agonist,HSV augment,HSV augment primary fold,RGS16-Gao HTS
Cn1nc(-c2ccccc2)c(CN2CCN(c3ncccn3)CC2)c1Cl,/,/,-2,/,i,1.1,96
CO/N=C/c1ccc(N2CCN(C(=O)c3ccc(Cl)cc3Cl)CC2)c([N+](=O)[O-])c1,-70,50,-7,-3.1,i,0.93,74
CCNC(=O)NC(=O)C(C)OC(=O)CCCc1nc2ccccc2s1 (stereo unspecified),/,/,-4,/,i,1,100
COc1cc(O)cc(O)c1C(=O)/C=C/c1ccccc1,/,/,7,/,i,0.54,97
COc1ccc(Cc2nnc(NC(=O)C(C)C)s2)cc1,/,/,/,/,i,0.88,106
OCC1(Cc2ccc(Cl)cc2)CCN(Cc2ccc(F)c(F)c2)CC1,/,/,/,/,i,0.94,92
O=C(c1ccc(OC2CCN(CCc3ccccc3)CC2)cc1)N1CCCC(O)C1 (stereo unspecified),/,/,-1,/,i,0.96,101
CC(=O)N(CCCCN1C(=O)c2ccccc2C1=O)c1ccc(C)cc1,43,120,-5,-1.3,i,1.2,99
CCc1cc(=O)oc2cc(C)cc(OCC(=O)C(C)(C)C)c12,/,/,5,/,i,0.9,103
Cc1ccc(CCNC(=O)CCNS(=O)(=O)c2ccc3c(c2)c(=O)n(C)c(=O)n3C)cc1,-82,60,16,-2.4,i,0.89,101
CCC(=O)Nc1nc2nc(-c3ccccc3)cc(-c3ccccc3)n2n1,0,73,-14,-0.4,/,/,101
O=C(c1ccc(COc2ccc3ccccc3c2)o1)N1N=C(C(F)F)CC1(O)C(F)F (stereo unspecified),-31,95,2,-1.5,i,0.85,103
COc1ccc(-c2ccc(-c3noc(-c4ccccc4C)n3)c(OC)n2)cc1,/,/,-2,0.1,i,1,98
O=C(O)c1ccccc1C(=O)Nc1ccc(-n2nc(C(F)(F)F)cc2C(F)(F)F)cc1,/,/,/,/,i,1,102
O=C(NC(Cc1ccccc1)C(=O)NCc1ccccn1)c1ccco1 (stereo unspecified),-42,115,-5,-1.2,i,1,/
O=c1c2cnn(-c3ccccc3)c2ncn1CCc1ccccc1,21,118,-2,-2.1,i,1,100
O=C(CCCCn1c(=O)c2ccccc2n(Cc2ccc(Cl)cc2)c1=O)NCc1ccco1,-16,87,-13,-0.1,i,0.71,101
COc1ccc(OC)c(C2C(C(=O)N(C)C)=C(C)Nc3nc4ccccc4n32)c1 (stereo unspecified),5,136,-11,0.2,i,0.96,105
Cc1ccnc(SCC(=O)c2cc3ccccc3o2)n1,/,/,-4,/,i,1.1,99
CCCCn1c(Cl)nc2c1c(=O)n(C)c(=O)n2C,-19,105,-3,-1.4,i,1.1,91
CCSc1nnc(-c2ccccc2SC)o1,-64,128,-4,/,/,/,103
O=C(COC(=O)C(O)C(O)C(=O)OCC(=O)c1ccc(C(F)(F)F)cc1)c1ccc(C(F)(F)F)cc1 (stereo unspecified),/,/,/,/,i,0.81,104
COc1ccc(/C=C2\SC(=S)N(NC(=O)c3ccncc3)C2=O)cc1OC,-84,86,-8,/,i,1.1,101
Cc1cccnc1NC(=O)c1ccc([N+](=O)[O-])o1,-21,84,0,-1.0,i,0.97,105
O=C1CCCc2c1[nH]c1ccc(Br)cc21,/,/,-11,-2.3,i,0.71,100
CCOc1ccc(C(=O)N2CCN(C(=O)c3ccco3)CC2)cc1OCC,-52,139,7,-1.7,i,0.95,96
COc1ccc(C(=O)NNC(=O)Nc2ccc(C)cc2)cc1,-38,77,-10,-0.9,i,1.1,42
CC(=O)Nc1ccc(C(=O)Nc2nc(-c3cccnc3)cs2)cc1,/,/,-5,/,i,1,90
O=C(NCc1cccnc1)c1ccc(COc2ccccc2Cl)o1,-50,58,1,/,i,0.94,95
Cc1cccc2c(=O)oc(-c3ccc4c(c3)C(=O)N(CC3CCCO3)C4=O)nc12 (stereo unspecified),0,104,-10,-1.1,/,/,/
CCN(CC(=O)NCCc1ccccc1)S(=O)(=O)c1ccc(Br)cc1,-4,126,-5,-1.1,i,0.99,108
Cc1csc(NC(=O)CCNC(=O)c2ccc([N+](=O)[O-])cc2)n1,/,/,0,-0.5,i,1.1,96
COCCOCC(O)CN1CCN(c2ccccc2)CC1 (stereo unspecified),/,/,-11,-2.5,i,1.1,99
S=C(NCCc1ccccc1)Nc1ccc(Br)cc1,/,/,-3,0.6,i,0.86,97
Cc1ccc2cc(C3CC(c4cccs4)=NN3S(C)(=O)=O)c(Cl)nc2c1 (stereo unspecified),/,/,/,/,i,1.1,107
O=C(Nc1ccc(N2CCOCC2)cc1)Nc1ccc2nc(-c3ccco3)c(-c3ccco3)nc2c1,-8,123,-6,-0.1,i,0.7,92
COc1ccc([N+](=O)[O-])c(S(=O)(=O)c2ccccc2)n1,/,/,/,/,i,0.71,93
Cc1ccc(OCC(=O)c2cc(C)n(C)c2C)c([N+](=O)[O-])n1,-8,131,-6,1.2,i,1,109
O=S(=O)(c1cccc2cccnc12)N1CCOCC1,-79,108,14,-0.8,i,0.84,119
COCCOC(=O)C1=C(N)OC2=C(C(=O)CC(C)(C)C2)C1c1ccncc1 (stereo unspecified),/,/,-3,/,i,1,106
CCn1nccc1C(=O)NC1=C(C#N)CCC1,-32,97,-13,-2.3,i,1.1,107
CCN(CC)c1cc(-c2ccccc2)ncn1,/,/,4,-1.1,i,0.85,107
O=c1c2ccccc2nc(/C=C/c2ccc([N+](=O)[O-])o2)n1CCCO,/,/,-12,-0.9,i,0.71,97
Cc1ccc(CN2CCc3c(OCC(=O)Nc4cccc(C)c4C)cccc3C2=O)cc1,-32,105,-4,0.1,i,0.87,130
CC(=O)NC(CSc1cc(C)nc2ccc(Br)cc12)C(=O)O (stereo unspecified),/,/,/,/,i,1.1,118
COc1ccc(Br)cc1-c1nc(C)c(C(C)=O)n1O,-21,130,-6,-0.9,i,1,96
CCOc1cc(C)nc(N2CCCC(C(=O)NCc3ccccc3F)C2)n1 (stereo unspecified),46,50,-9,-0.9,i,1.1,104
Clc1ccc(SCCOCCN2CCc3ccccc3C2)cc1,9,53,-7,/,i,0.99,95
CCOC(=O)CCCCNCc1ccccc1,5,123,-11,-1.5,i,0.87,18
CCOCCCn1cc(C(=O)c2cc(Br)ccc2O)cc(C#N)c1=O,10,112,6,/,i,1,105
# The list goes on.
SMILES,Insulin prom inh,Insulin prom inh cell count,PKD1 kinase inh,GALR2 agonist,HSV augment,HSV augment primary fold,RGS16-Gao HTS
COc1ccc(C(=O)Cn2c(=N)n(C)c3ccccc32)cc1,/,/,/,/,i,0.95,97
O=c1oc2c(-c3cccc(F)c3)cc(O)cc2s1,21,108,-5,/,i,1.2,112
CCOC(=O)C(NC(C)=O)(Nc1cccc(F)c1)C(F)(F)F (stereo unspecified),23,77,-12,-1.0,i,0.98,103
Cc1ccn2cc(-c3cc4ccccc4oc3=O)nc2c1,/,/,-3,/,i,1.1,107
Nc1c(S(=O)(=O)c2ccccc2)csc1C(=O)O,/,/,1,/,i,0.93,91
CCN(c1ccc(NC(=O)CN2C(=O)NC3(CCOc4ccccc43)C2=O)cc1)C(C)C (stereo unspecified),41,89,2,-4.4,i,0.91,104
Cn1cccc1Cc1nnc(SCC(=O)NCc2ccc3c(c2)OCO3)n1CCc1ccccc1,-60,59,2,0.0,i,0.84,108
CC(C)(C)c1ncc(S(=O)(=O)c2ccc(C(F)(F)F)cn2)c(N)n1,/,/,/,/,i,0.87,94
CC1(C(=O)Nc2ccccc2)Cc2ccccc2C(=O)O1 (stereo unspecified),/,/,-11,/,i,0.86,104
N#Cc1ccc(-c2cccnc2)nc1SCc1ccc(Cl)cc1Cl,/,/,8,-0.1,i,0.95,110
COc1cccc(CNS(=O)(=O)/C=C/c2ccc(OC)c(OC)c2)c1,/,/,-3,/,i,1,105
O=C(N/N=C/c1ccccn1)c1sc2ccccc2c1Cl,/,/,/,/,i,1,104
COc1ccc(NC(=O)Cn2nnc(C(=O)NCc3ccco3)c2N)c(OC)c1,-23,121,-2,-2.1,i,1,108
CSc1ccc(/C=N/N2CCN(Cc3ccc(Cl)cc3)CC2)cc1,11,99,0,/,i,0.97,99
S=C(Nc1ccc(Cl)cc1)N1CCOCC1,45,89,-6,0.0,i,1,/
CCOC(=O)C1CCN(c2nc3ccccc3nc2C(C#N)C(=O)OCCOC)CC1 (stereo unspecified),-39,119,0,-0.6,i,0.93,100
CCCc1nc2ccc(NC(=O)NCCC(=O)OCC)cc2c(=O)n1Cc1ccc(Cl)cc1,-54,88,2,-0.7,i,1,8.6*
C=CCn1c(-c2ccc(Cl)cc2)c[nH]c1=S,/,/,22,-1.7,i,0.81,32
COc1cccc(OCCNc2cc(N3CCOCC3)ccc2[N+](=O)[O-])c1,-30,101,-6,0.4,i,0.88,104
Cc1ccc(C)c(C(=O)COC(=O)c2cc(Cl)nc3ccccc23)c1,20,114,1,-0.7,i,0.96,91
O=C(CNS(=O)(=O)c1ccc(Br)cc1)N1CCN(c2ccc(F)cc2)CC1,-354,77,-7,-3.1,i,0.97,88
Nc1nc(NCc2ccco2)nn1-c1ccccc1,31,146,-1,-2.1,i,0.93,99
